# rRNA inh HTS = inhibitors of bacterial rRNA selective over humanized ribosomes; E. coli WT GFP vs humanized-ribosome RFP mutants, fluorescence, 24 h; active compounds read low; DMSO median 0, no signal -100; GFP signal change (wild-type ribosome), % (no concentration beside the values); actives 1.6% (n = 350,000); AID 720706;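 active means significant combined selectivity score with lowered wild-type GFP, culture density cut under 30%, mutant RFP and density less affected; inactive means any of these conditions unmet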; further: one replicate is shown; some compounds called inactive have numbers as strong as hits
# AF4-AF9 inh = MLL-AF4/AF9 protein interaction inhibition; P42568; AlphaScreen, biotin-AF4 peptide binding to FLAG-AF9; inhibition, % at 10 µM; actives 0.47% (n = 350,000);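 active means every replicate reaching a set inhibition limit, whatever the replicate mean, cut at about 25% in these data; inconclusive means mean inhibition reaches that limit but some replicates miss it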;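 further: 0% = plate neutral control median and 100% = total signal loss; the record names both 10 and 1 µM as test concentration; the first replicate is given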
# Target sequence (P42568 whole entry, looked up): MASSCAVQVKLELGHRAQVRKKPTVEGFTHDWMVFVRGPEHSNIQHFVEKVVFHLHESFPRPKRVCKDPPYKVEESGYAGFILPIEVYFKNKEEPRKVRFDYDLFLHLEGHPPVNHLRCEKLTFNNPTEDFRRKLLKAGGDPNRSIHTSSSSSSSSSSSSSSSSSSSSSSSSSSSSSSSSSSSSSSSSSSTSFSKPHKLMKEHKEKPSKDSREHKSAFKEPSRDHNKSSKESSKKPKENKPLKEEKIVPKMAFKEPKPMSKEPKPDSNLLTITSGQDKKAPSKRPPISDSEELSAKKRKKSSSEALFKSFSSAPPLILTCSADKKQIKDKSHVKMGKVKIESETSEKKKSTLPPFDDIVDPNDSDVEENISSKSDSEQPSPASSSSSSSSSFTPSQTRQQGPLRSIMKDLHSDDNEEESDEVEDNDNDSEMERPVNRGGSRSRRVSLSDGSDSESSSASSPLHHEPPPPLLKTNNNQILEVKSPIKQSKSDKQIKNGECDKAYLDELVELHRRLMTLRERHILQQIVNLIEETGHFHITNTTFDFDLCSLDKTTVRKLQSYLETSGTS
# rRNA inh HTS OD600 = further read-out of rRNA inh HTS, marked with its call; OD600 change, %; measured here: OD600 growth;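 optical density of the mix in the first replicate; 0 = DMSO median and -100 = no signal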
# rRNA inh HTS RFP = also measured in rRNA inh HTS; calls as there; RFP signal change, %; measured here: RFP humanized mutant strains;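 first replicate; 0 = DMSO median and -100 = no signal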
# * hit, by the source's call; ? = inconclusive; & = joins results of further samples. Only part of the results is shown; count on the stated rates, not on these rows.
item	structure	rRNA inh HTS	rRNA inh HTS OD600	rRNA inh HTS RFP	AF4-AF9 inh
1	CC(C)NC(=O)Nc1ccc2c(c1)C(=O)N([C@@H](C)CO)C[C@H](C)[C@H](CN(C)C(=O)c1ccncc1)OCCCC[C@H](C)O2	-0.3	5.6	-1.8	-1.3
2	COCC(=O)N1CC2(CN(Cc3nccs3)C2)c2c(n(C)c3cc(OC)ccc23)[C@@H]1CO	-0.1	2.1	-0.9	-1.8
3	CC(C)C1C(=O)N(Cc2cn(CCC3OCCO3)nn2)CCS(=O)(=O)N1Cc1ccc(-c2ccc(F)cc2)cc1 (configuration not stated)	3.2	-11.3	1.7	2.4
4	C[C@@H]1CN([C@@H](C)CO)C(=O)c2cc(NC(=O)C3CCCCC3)ccc2O[C@@H]1CN(C)C(=O)Nc1cccc2ccccc12	-1.4	-5.7	1.4	2.6
5	C[C@H](CO)N1C[C@H](C)[C@H](CN(C)CC2CCCCC2)Oc2c(NS(=O)(=O)c3ccccc3)cccc2C1=O	3.7	1.6	-0.1	-1.3
6	O=C(CC1CC1)N1[C@@H](CO)[C@H](c2ccccc2)C12CN(S(=O)(=O)c1ccccc1)C2	1.8	5.3	-3.3	0.4
7	O=C(c1cccnc1)N1CC2(C1)[C@H](c1ccccc1)[C@@H](CO)N2Cc1cccnc1	0.8	-4.1	-4.8	4.4
8	C[C@@H]1CN([C@@H](C)CO)S(=O)(=O)c2ccc(C3=CCCCC3)cc2O[C@@H]1CN(C)C(=O)Cc1ccncc1	-3.6	-2.7	0.6	4.4
9	O=C(Nc1cccc(OC(F)(F)F)c1)C1Cc2c(-c3ccco3)ccnc2O1 (configuration not stated)	-9.1	-40.2	17.3	-3.9
10	C[C@@H]1CN([C@H](C)CO)S(=O)(=O)c2ccc(-c3ccccc3)cc2O[C@H]1CN(C)C	-1.4	4.6	-0.8	-0.1
11	Cc1noc(C)c1NC(=O)N(C)C[C@H]1Oc2c(NC(=O)C3CCOCC3)cccc2C(=O)N([C@@H](C)CO)C[C@H]1C	1.8	1.9	-0.1	-0.7
12	O=C(/C=C/c1ccccc1)Nc1cccc(C(=O)NCc2ccccc2)c1	-5.8	-3.7	-6.9	-2.4
13	C[C@H]1CN([C@@H](C)CO)C(=O)Cc2cc(NC(=O)Cn3cnnn3)ccc2O[C@@H]1CN(C)S(=O)(=O)c1cn(C)cn1	2.9	5.2	-0.6	-0.3
14	COc1ccc(S(=O)(=O)N2C[C@H](O)COC[C@H]3O[C@@H](CC(=O)NCc4ccc(Cl)c(Cl)c4)CC[C@@H]32)cc1	-26.2	-41.8	-2.0	1.9
15	COCC(=O)N1[C@H](CO)[C@H](c2ccc(C3=CCCCC3)cc2)[C@@H]1C#N	-0.1	5.4	-1.8	2.0
16	COc1ccc(CN(C)C[C@H]2Oc3c(NC(=O)C4CC4)cccc3C(=O)N([C@@H](C)CO)C[C@@H]2C)cc1	-9.3	-9.2	-1.6	0.4
17	COc1ccc(-c2ccc([C@@H]3[C@H](CO)N4CCCCN(C(=O)c5ccc(F)cc5)C[C@@H]34)cc2)cc1	-58.8	-75.9	-15.7	5.8
18	CCCNC(=O)Nc1ccc2c(c1)OC[C@@H](C)N(C(=O)c1ccccc1F)C[C@H](C)[C@@H](OC)CN(C)C2=O	-0.5	4.1	-3.0	-17.8
19	COc1ccccc1C#Cc1ccc([C@H]2[C@@H](CO)N(C(=O)C3CCCCC3)[C@H]2C#N)cc1	0.7	-0.3	2.6	6.8
20	C[C@H]1CN([C@@H](C)CO)C(=O)c2cccc(NC(=O)C3CCOCC3)c2O[C@H]1CN(C)Cc1ccccc1	2.5	16.7	-0.8	-3.6
21	COc1cccc(S(=O)(=O)N2C[C@@H](O)COC[C@H]3O[C@@H](CC(=O)NCCCN4CCOCC4)CC[C@@H]32)c1	2.5	7.7	-2.1	2.1
22	COc1cccc(CN2[C@H](CO)[C@@H]3c4ccccc4N(C(=O)c4cccnc4)C[C@@H]32)c1	2.5	2.2	1.7	0.0
23	COc1ccc(S(=O)(=O)N(C)C[C@H]2OCCCC[C@@H](C)Oc3ccc(NS(=O)(=O)c4cn(C)cn4)cc3C(=O)N([C@H](C)CO)C[C@@H]2C)cc1	-1.1	5.1	-1.5	-6.6
24	CC(C)C#Cc1ccc([C@H]2[C@@H](C#N)N(C(=O)c3ccccn3)[C@@H]2CO)cc1	3.6	-42.0	15.0	-0.2
25	COc1cccc(NC(=O)C[C@H]2CC[C@@H]3[C@@H](COc4ccc(NC(C)=O)cc4C(=O)N3C)O2)c1	-0.7	-3.4	-0.6	-16.5
26	CSCCC(C(=O)Nc1c(C)cccc1C)N1CCN(C/C=C/c2ccccc2)CC1 (configuration not stated)	0.2	-0.3	-4.2	2.2
27	C[C@@H]1CN([C@@H](C)CO)C(=O)c2cccc(NC(=O)c3nc4ccccc4s3)c2O[C@H]1CN(C)S(=O)(=O)c1ccc(F)cc1	-2.3	-5.4	-2.8	-2.1
28	Cc1noc(C)c1S(=O)(=O)Nc1ccc2c(c1)CC(=O)N([C@H](C)CO)C[C@H](C)[C@@H](CN(C)S(=O)(=O)c1cn(C)cn1)O2	1.2	3.5	-0.9	0.8
29	COc1ccc(S(=O)(=O)Nc2cccc3c2O[C@@H](CN(C)S(=O)(=O)c2ccc(OC)cc2)[C@@H](C)CN([C@H](C)CO)C3=O)cc1	0.0	2.6	-1.7	1.5
30	COc1ccc(-c2ccc3c(n2)CCCN3S(=O)(=O)c2ccc(OC)cc2)cc1	4.1	6.1	2.7	-0.7

# Laid out differently: three of the compounds above
(22) COc1cccc(CN2[C@H](CO)[C@@H]3c4ccccc4N(C(=O)c4cccnc4)C[C@@H]32)c1
- rRNA inh HTS: 2.5
- rRNA inh HTS OD600: 2.2
- rRNA inh HTS RFP: 1.7
- AF4-AF9 inh: 0.0
(23) COc1ccc(S(=O)(=O)N(C)C[C@H]2OCCCC[C@@H](C)Oc3ccc(NS(=O)(=O)c4cn(C)cn4)cc3C(=O)N([C@H](C)CO)C[C@@H]2C)cc1
- rRNA inh HTS: -1.1
- rRNA inh HTS OD600: 5.1
- rRNA inh HTS RFP: -1.5
- AF4-AF9 inh: -6.6
(24) CC(C)C#Cc1ccc([C@H]2[C@@H](C#N)N(C(=O)c3ccccn3)[C@@H]2CO)cc1
- rRNA inh HTS: 3.6
- rRNA inh HTS OD600: -42.0
- rRNA inh HTS RFP: 15.0
- AF4-AF9 inh: -0.2

# Going on with the list.
item	structure	rRNA inh HTS	rRNA inh HTS OD600	rRNA inh HTS RFP	AF4-AF9 inh
31	C[C@H](CO)N1C[C@H](C)[C@@H](CN(C)Cc2cncnc2)Oc2cc(-c3ccncc3)ccc2S1(=O)=O	-0.4	-3.9	0.5	0.7
32	C[C@@H]1CCCCO[C@@H](CN(C)Cc2ccc(C(=O)O)cc2)[C@@H](C)CN([C@H](C)CO)C(=O)c2cc(NS(=O)(=O)c3cccs3)ccc2O1	6.7	6.2	-0.2	-2.9
33	COc1ccccc1-c1ccc2c(c1)O[C@@H](CN(C)S(=O)(=O)c1ccc(C)cc1)[C@@H](C)CN([C@@H](C)CO)S2(=O)=O	-0.4	-0.8	-3.1	-1.1
34	C[C@@H]1CN([C@H](C)CO)C(=O)c2cc(-c3ccccc3)cnc2O[C@@H]1CN(C)C(=O)NC1CCCC1	5.9	7.9	-2.5	-1.9
35	COCC#Cc1cnc2c(c1)C(=O)N([C@@H](C)CO)C[C@@H](C)[C@H](CN(C)C(=O)C1CCCCC1)O2	-0.1	5.0	-2.5	-1.5
36	Cc1ccc(S(=O)(=O)N[C@@H]2CC[C@@H](CCNC(=O)C3CCCC3)O[C@H]2CO)cc1	3.6	2.1	-0.2	-0.1
37	COc1ccc(S(=O)(=O)N(C)C[C@@H]2Oc3c(NC(=O)Nc4ccc(F)cc4)cccc3C(=O)N([C@@H](C)CO)C[C@H]2C)cc1	-4.1	-8.8	0.7	2.2
38	C[C@H](CO)N1C[C@H](C)[C@H](CN(C)S(=O)(=O)c2ccc(F)cc2)OCCCC[C@H](C)Oc2ccc(NC(=O)CCCN(C)C)cc2C1=O	0.0	0.9	-1.2	2.4
39	COc1ccc(CN(C)C[C@H]2Oc3ccc(NS(=O)(=O)c4ccc(F)cc4)cc3CC(=O)N([C@H](C)CO)C[C@@H]2C)cc1	-1.9	-9.1	2.4	-3.1
40	CCOC(=O)C1=CCN(S(C)(=O)=O)C1c1ccc(C)cc1 (configuration not stated)	10.5	4.7	-3.3	-0.6
41	CCNC(=O)[C@H]1[C@H](CO)[C@H]2Cn3c(ccc(-c4ccc(F)cc4)c3=O)[C@@H]1N2C(=O)c1ccccn1	-1.3	4.6	-0.7	-16.3
42	CN1C(=O)c2cc(NC(=O)c3ccc4c(c3)OCO4)ccc2OC[C@@H]2O[C@@H](CC(=O)O)CC[C@H]21	3.5	-1.8	-0.1	-1.7
43	O=C(OCC12CC3CC(CC(C3)C1)C2)c1ccc(NCc2cc(O)ccc2O)cc1	1.5	1.8	5.1	?
44	Cc1ccc(S(=O)(=O)Nc2ccc3c(c2)C(=O)N([C@@H](C)CO)C[C@H](C)[C@H](CN(C)C(=O)C2CCCCC2)OCCCC[C@H](C)O3)cc1	-1.3	-8.7	1.2	1.9
45	C[C@@H]1CN([C@@H](C)CO)C(=O)Cc2cc(NS(=O)(=O)c3ccc(F)cc3)ccc2O[C@@H]1CN(C)C(=O)Nc1ccc(F)cc1	2.0	-1.8	1.6	-1.8
46	CC(C)NC(=O)Nc1ccc2c(c1)C(=O)N([C@@H](C)CO)C[C@H](C)[C@@H](CN(C)C(=O)Nc1ccc3c(c1)OCO3)O2	5.9	10.3	1.6	-3.3
47	COc1ccc2c3c([nH]c2c1)[C@H](CO)N(C(=O)CN(C)C)CC31CCN(Cc2ccccc2Cl)CC1	1.5	-8.3	-0.5	27.5*
48	O=C(C[C@H]1CC[C@@H](NC(=O)Cc2ccccn2)[C@H](CO)O1)NCCc1ccncc1	-0.8	0.0	-4.3	1.5
49	O=C(NCCc1ccccc1)[C@H]1[C@H](CO)[C@H]2Cn3c(cccc3=O)[C@@H]1N2C(=O)C1CCC1	4.3	8.2	-0.5	-2.3
50	C[C@H](CO)N1C[C@H](C)[C@H](CN(C)C(=O)Nc2ccc(F)cc2)Oc2ccc(NC(=O)Nc3ccc(F)cc3)cc2C1=O	-10.1	-17.6	-0.6	4.4
51	COc1ccc(NC(=O)N(C)C[C@H]2Oc3ncc(C4=CCCC4)cc3C(=O)N([C@@H](C)CO)C[C@H]2C)cc1	-1.4	6.9	3.2	-2.3
52	CC(C)NC(=O)N(C)C[C@@H]1Oc2ncc(-c3ccc(C(=O)N(C)C)cc3)cc2C(=O)N([C@@H](C)CO)C[C@H]1C	-0.4	2.7	-1.8	-1.4
53	CN1c2ccc(-c3ccc(C#N)cc3)cc2[C@H]2[C@H](CCN2S(=O)(=O)c2cccc(F)c2)[C@@H]1CO	-5.6	-0.8	4.5	-3.9
54	O=C(C[C@H]1CC[C@@H]2[C@H](COC[C@H](O)CN2C(=O)c2cccnc2)O1)Nc1ccc(-c2ccccc2)cc1	1.4	9.8	3.5	1.4
55	CS(=O)(=O)N1[C@H](C#N)[C@@H](c2ccccc2-c2ccccc2)[C@@H]1CO	2.1	14.2	-4.2	3.0
56	O=C(C[C@H]1CC[C@@H](NC(=O)c2ccncc2)[C@@H](CO)O1)NCc1ccncn1	1.2	-3.7	-2.0	-0.8
57	CC(=O)N(C)C[C@@H]1Oc2ncc(C#Cc3cccc(F)c3)cc2C(=O)N([C@@H](C)CO)C[C@@H]1C	3.7	-2.5	-1.8	1.6
58	COc1ccccc1NC(=O)CN1C(=O)NC2(CCCc3ccccc32)C1=O (configuration not stated)	-5.8	-4.6	-1.0	1.3
59	COc1ccc(OCC(=O)NCc2nc(-c3ccccc3)no2)cc1	5.6	10.7	-1.8	7.3
60	COc1cccc(-c2cn(CC[C@H]3CC[C@@H](NC(=O)CC4CC4)[C@H](CO)O3)nn2)c1	-3.1	-2.5	0.8	-1.5
61	CNc1cncc(-c2ccc(NS(C)(=O)=O)cc2)n1	10.5	13.4	-0.3	-2.0
62	NC(=O)CSc1nnc(-c2cccc(S(=O)(=O)N3CCOCC3)c2)o1	8.0	9.8	-1.9	-0.4
63	CC(C)NC(=O)Nc1ccc2c(c1)C(=O)N([C@@H](C)CO)C[C@@H](C)[C@@H](CN(C)C(=O)CCC(F)(F)F)OCCCC[C@@H](C)O2	1.4	9.0	0.4	0.3
64	Cc1ccc(S(=O)(=O)N[C@@H]2CC[C@H](CCNC(=O)c3ccc4c(c3)OCO4)O[C@H]2CO)cc1	2.6	-1.8	1.3	-1.5
65	Cc1noc(C)c1C(=O)N1CCC1(C)C(=O)NS(=O)(=O)Cc1cccc(Cl)c1 (configuration not stated)	2.9	13.2	0.5	2.2
66	COCCN(C[C@H]1N[C@H](CO)[C@@H]1c1ccc(-c2cccnc2)cc1)C(C)=O	3.5	10.8	-1.4	-2.1
67	C[C@H]1CN([C@@H](C)CO)C(=O)Cc2cc(NC(=O)Nc3cccc4ccccc34)ccc2O[C@H]1CN(C)S(=O)(=O)c1ccc(Cl)cc1	2.0	-0.6	0.1	3.3
68	C[C@H]1CN([C@@H](C)CO)C(=O)c2cc(NC(=O)CCCCCC(=O)Nc3ccccc3N)ccc2O[C@H]1CN(C)Cc1ccc2c(c1)OCO2	-0.1	6.1	-0.6	-2.1
69	CCCNC(=O)Nc1ccc2c(c1)OC[C@H](C)N(Cc1ccncc1)C[C@@H](C)[C@H](OC)CN(C)C2=O	-1.9	-0.3	3.6	2.8
70	COc1ccccc1-c1ccc(C2[C@@H]3CN(S(=O)(=O)c4ccc(F)cc4)C[C@H]2N3)cc1 (some centres not stated)	-58.3&3.4	-75.5&12.9	-10.8&3.0	0.9&2.3
